RecA splice inh: blocks M. tuberculosis RecA intein splicing; P9WHJ3; cell-free RecA intein splicing, fluorescence; inhibition, %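 (about 9 µM by stock and volumes)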; actives 0.75% (n = 290,000); AID 2221; in the data active = inhibition above about 30%; inconclusive = no clear call, values can overlap the other calls;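 note: 0% = vehicle wells and 100% = reference inhibitor control wells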
Target sequence (P9WHJ3 whole entry, looked up, canonical isoform): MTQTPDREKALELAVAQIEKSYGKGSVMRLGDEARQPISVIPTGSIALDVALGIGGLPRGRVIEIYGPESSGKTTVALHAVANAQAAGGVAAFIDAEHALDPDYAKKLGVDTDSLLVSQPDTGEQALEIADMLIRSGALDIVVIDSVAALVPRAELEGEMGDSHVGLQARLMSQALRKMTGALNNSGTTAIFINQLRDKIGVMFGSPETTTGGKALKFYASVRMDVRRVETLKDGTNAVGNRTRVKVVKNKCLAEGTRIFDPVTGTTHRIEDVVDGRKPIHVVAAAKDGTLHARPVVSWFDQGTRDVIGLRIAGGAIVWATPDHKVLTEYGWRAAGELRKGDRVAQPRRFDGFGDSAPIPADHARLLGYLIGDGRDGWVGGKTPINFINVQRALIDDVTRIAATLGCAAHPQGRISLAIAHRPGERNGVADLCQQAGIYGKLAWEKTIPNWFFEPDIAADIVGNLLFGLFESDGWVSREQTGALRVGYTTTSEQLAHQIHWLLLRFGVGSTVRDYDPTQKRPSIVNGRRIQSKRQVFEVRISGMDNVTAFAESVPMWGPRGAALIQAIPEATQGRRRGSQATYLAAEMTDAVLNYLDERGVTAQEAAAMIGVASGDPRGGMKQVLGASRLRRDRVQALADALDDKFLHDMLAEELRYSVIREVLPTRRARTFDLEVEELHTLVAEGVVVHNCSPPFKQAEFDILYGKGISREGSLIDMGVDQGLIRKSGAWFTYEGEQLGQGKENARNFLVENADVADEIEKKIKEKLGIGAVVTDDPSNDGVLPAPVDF
Mtb growth: M. tuberculosis H37Rv growth inhibitors, H37Rv strain (AID 1626); M. tuberculosis H37Rv growth inhibition; higher % means a stronger effect; inhibition, % at 10 µM; hits with a dose series show IC50 in µM; actives 0.95% (n = 220,000);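 active = confirmed in a dose series; inconclusive = inhibition above 80% but not taken into the dose series; inactive = below 80% or under 30% at every dose of the series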;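 note: bacteria incubated seven days before Alamar blue readout; 0% = bacteria only wells and 100% = bacteria with antibiotic wells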
Mtb betalactam: beta-lactam sensitization of Mtb H37Rv; M. tuberculosis H37Rv growth with meropenem, percent inhibition; hits of this screen are not shown here; actives 0.27% (n = 330,000); inhibition, % at 25 µM;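 active = about 74% or more and at least 40 points above the plate without the antibiotic, then above 30% in a dose series; inconclusive = first-round hits that could not be retested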;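 note: growth measured after seven days incubation then overnight dye step; 0% = bacteria only wells and 100% = bacteria with antibiotic; twin plates without the antibiotic show which effects depend on it; some results filed as inactive read as strong as hits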
Arbovirus inh: antivirals against arbovirus infection. arbovirus infection cell-based antiviral screen. inhibition, % at 10 µM. actives 0.37% (n = 200,000). AID 1251;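 active = inhibition from about 30%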;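 note: bluetongue infection of BSR cells; cell survival read as ATP light after 72 h; 0% = infected wells without compound and 100% = uninfected wells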
YopH PTP inh: YopH (Yersinia) phosphatase inhibition | fluorescence Ex485/Em525 | inhibition, %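 (about 10 µM by stock and volumes)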 | actives 0.16% (n = 140,000) | AID 898;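 active = inhibition of 50% or more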;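 note: controls were vehicle for no effect and minimum signal wells for full effect; inactives centre near -20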
Arbovirus inh repeat: second read-out of Arbovirus inh, no call of its own (marks repeat the call); inhibition, %; measured here: 10K subset replicate screen; many hits read low in the repeat;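 first of two repeat runs on a subset; 0% = infected and 100% = uninfected wells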
* = called active by the depositor; ? = inconclusive; / = not tested or not shown.

SMILES	RecA splice inh	Mtb growth	Mtb betalactam	Arbovirus inh	YopH PTP inh	others
Cc1ccc2occ(/C=N/NC(=O)c3ccccc3O)c(=O)c2c1	-6.0	/	-9	/	/
CC(=O)c1ccc2noc(-c3ccccc3)c2c1	/	-10%	3	-7	/
COc1cccc(N2CCN(Cc3nc4ccccc4c(=O)[nH]3)CC2)c1	-12	0%	3	1	-27
O=[N+]([O-])c1ccccc1N/N=C/c1cc2ccccc2nc1Cl	2.2	0%	37	-12	-10
COc1ccc(CN(C(=O)c2cc3ccccc3oc2=O)C2CCS(=O)(=O)C2)cc1OC (stereo unspecified)	13	/	-2	/	/
C=CCN=C(CC)C1=C(O)CCCC1=O	-1.4	-18%	-3	3	-37
C=CCNC(=O)c1ccc2c(c1)S(=O)(=O)c1ccccc1C2=O	-6.2	-9%	-7	/	/
O=C1CCN(Cc2ccc([N+](=O)[O-])cc2)CCN1CCO	-0.2	/	2	/	/
COCCn1c(=S)[nH]c2cc(C(=O)NCCCN3CCOCC3)ccc2c1=O	-0.2	-5%	3	5	-6
O=C(CN(C(=O)c1csnn1)c1cccc(F)c1)NCc1ccc2c(c1)OCO2	-0.3	/	4	/	/
CCOC(=O)c1sc(=NC(=O)C2CC2)n(C)c1C	4.6	-11%	-3	12	/
CCOC(=O)c1ccc(N2C(=O)C(O)=C(C(C)=O)C2c2ccccc2)cc1 (stereo unspecified)	-2.0	1%	74	4	-24
CCOC(=O)C1CCN(c2ccc([N+](=O)[O-])cc2)CC1	4.6	1%	-1	12	/
Fc1ccc(CNc2nc(-c3ccco3)cc(C(F)(F)F)n2)cc1	18	-6%	3	-4	11
CC(C)[C@H](NC(=O)c1cc2cc(Cl)ccc2n1C)C(=O)N[C@@H](C(=O)O)c1ccccc1	1.0	/	-4	/	/
COC(=O)c1ccc(NC(=O)Cn2nc(-c3ccncc3)nc2SCC(=O)Nc2nccs2)cc1	0.4	-5%	-9	-3	-25
CC1OC(OC2C(Oc3c(-c4ccc(O)cc4)oc4cc(O)cc(O)c4c3=O)OC(COC3O[C@@H](C)[C@H](O)[C@@H](O)C3O)C(O)C2O)C(O)C(O)C1O (stereo partly specified)	-1.9	/	0	/	/
Cc1cc(OCCn2cnc3ccccc3c2=O)ccc1[N+](=O)[O-]	-9.8	-1%	9	4	-31
COc1ccc(OC)c([C@@H](O)[C@H](C)NC(C)(C)C)c1	2.3	-7%	-10	1	-26
CCOC(=O)C1=C(C)N(C)C(C)=C(C(=O)OCC)C1c1ccsc1	-1.4	8%	3	-1	/

Arranged by molar mass (highest first): part of the list above.
SMILES	RecA splice inh	Mtb growth	Mtb betalactam	Arbovirus inh	YopH PTP inh	others
CC1OC(OC2C(Oc3c(-c4ccc(O)cc4)oc4cc(O)cc(O)c4c3=O)OC(COC3O[C@@H](C)[C@H](O)[C@@H](O)C3O)C(O)C2O)C(O)C(O)C1O (stereo partly specified)	-1.9	/	0	/	/
COC(=O)c1ccc(NC(=O)Cn2nc(-c3ccncc3)nc2SCC(=O)Nc2nccs2)cc1	0.4	-5%	-9	-3	-25
COc1ccc(CN(C(=O)c2cc3ccccc3oc2=O)C2CCS(=O)(=O)C2)cc1OC (stereo unspecified)	13	/	-2	/	/
CC(C)[C@H](NC(=O)c1cc2cc(Cl)ccc2n1C)C(=O)N[C@@H](C(=O)O)c1ccccc1	1.0	/	-4	/	/
O=C(CN(C(=O)c1csnn1)c1cccc(F)c1)NCc1ccc2c(c1)OCO2	-0.3	/	4	/	/
COCCn1c(=S)[nH]c2cc(C(=O)NCCCN3CCOCC3)ccc2c1=O	-0.2	-5%	3	5	-6
CCOC(=O)c1ccc(N2C(=O)C(O)=C(C(C)=O)C2c2ccccc2)cc1 (stereo unspecified)	-2.0	1%	74	4	-24
COc1cccc(N2CCN(Cc3nc4ccccc4c(=O)[nH]3)CC2)c1	-12	0%	3	1	-27
CCOC(=O)C1=C(C)N(C)C(C)=C(C(=O)OCC)C1c1ccsc1	-1.4	8%	3	-1	/
Fc1ccc(CNc2nc(-c3ccco3)cc(C(F)(F)F)n2)cc1	18	-6%	3	-4	11
O=[N+]([O-])c1ccccc1N/N=C/c1cc2ccccc2nc1Cl	2.2	0%	37	-12	-10
Cc1cc(OCCn2cnc3ccccc3c2=O)ccc1[N+](=O)[O-]	-9.8	-1%	9	4	-31
Cc1ccc2occ(/C=N/NC(=O)c3ccccc3O)c(=O)c2c1	-6.0	/	-9	/	/
O=C1CCN(Cc2ccc([N+](=O)[O-])cc2)CCN1CCO	-0.2	/	2	/	/
CCOC(=O)C1CCN(c2ccc([N+](=O)[O-])cc2)CC1	4.6	1%	-1	12	/
CCOC(=O)c1sc(=NC(=O)C2CC2)n(C)c1C	4.6	-11%	-3	12	/
COc1ccc(OC)c([C@@H](O)[C@H](C)NC(C)(C)C)c1	2.3	-7%	-10	1	-26
CC(=O)c1ccc2noc(-c3ccccc3)c2c1	/	-10%	3	-7	/
C=CCN=C(CC)C1=C(O)CCCC1=O	-1.4	-18%	-3	3	-37

Next compounds follow.
SMILES	RecA splice inh	Mtb growth	Mtb betalactam	Arbovirus inh	YopH PTP inh	others
Fc1cccc(CSc2ccc3nnc(-c4cccnc4)n3n2)c1	0.2	3%	-10	-8	/
Cc1ccc(C(=O)c2ccccc2C(=O)OCC(=O)NC(=O)NC(C)(C)C)cc1	0.8	8%	18	7	/
O=C(N[C@@H](Cc1ccccc1)C(=O)O)c1c(F)c(F)c(F)c(F)c1F	1.3	-4%	-17	4	/
Cc1ccc(-c2nnc(NCc3nc4ccccc4[nH]3)c3ccccc23)cc1S(=O)(=O)N1CCOCC1	4.5	9%	86	-16	4
COCCn1cnc2cc(C)c(C)cc21	-1.6	/	-2	4	-37
O=C(CCN1CCN(c2ccccc2)CC1)N/N=C/c1ccc(O)c(O)c1O	-2.1	4%	/	-3	/
COC(=O)c1ccccc1NC(=O)C1CCCN(S(=O)(=O)c2ccc(OC)cc2)C1 (stereo unspecified)	18	5%	-3	3	-39
CC(=O)c1ccc(NC(=O)c2c(C)nn(-c3ccccc3)c2Cl)cc1	-0.2	8%	51	-4	/
COc1ccc(S(=O)(=O)N(C)CC(=O)N2CCN(C)CC2)cc1Cl	-2.6	/	1	/	/
O=C(N/N=C/c1ccc[nH]1)c1ccc([N+](=O)[O-])cc1	-5.8	6%	39	-6	-36
CC(=O)Nc1ccc(S(=O)(=O)NNc2cccc(C)c2)cc1	0.4	/	-9	/	/
COc1cc(CN2CCCCCC2)cc(Br)c1O	-3.2	/	-3	/	/
CCOC(=O)c1cc(-c2ccc(F)cc2)n(CC(=O)Nc2nccs2)c1C	6.8	0%	4	14	-3	Arbovirus inh repeat=2
COc1ccc(N2C(=O)/C(=C\c3ccco3)N=C2SCC(=O)NC(C)(C)C)cc1Cl	38*	4%	-6	-2	-32
O=C1C=C(O)C(n2cncn2)C(c2ccc(F)cc2)C1 (stereo unspecified)	-4.2	-2%	1	6	/
CCN(CC)C(=O)CN1CCN(Cc2ccc3c(c2)OCO3)CC1	-1.3	/	1	/	/
O=C(NC(=S)NCCc1ccccc1)C1CCCCC1	7.0	-12%	48	10	-11
Cc1ccnc(N2C(=O)CSC2c2ccc(Cl)cc2)c1 (stereo unspecified)	2.5	-5%	-4	-6	-38
O=c1ccccn1Cc1c(F)cccc1Cl	0.3	6%	-2	3	-12
COc1cc(/C=C2/C(=O)N=C(N)N2C)cc(OC)c1OC	-2.5	-10%	-19	11	-20
CCOC(=O)N1CCC(Nc2c(Nc3ccc(C)c(C)c3)c(=O)c2=O)CC1	0.0	11%	40	-3	-34
CCc1ccccc1NC(=O)N[C@H](C(=O)O)C(C)CC (stereo partly specified)	-2.4	-2%	-14	-1	-37
O=C(/C=C/c1ccc(S(=O)(=O)N2CCOCC2)cc1)NC(=S)NCCCn1ccnc1	0.4	4%	-3	3	/
CCC(C)NC(=O)C1CCC(=O)N1CCc1ccccc1 (stereo unspecified)	0.3	/	0	/	/
COc1ccc2[nH]cc(CCNC(=O)C3CC(=O)N(c4ccc(Cl)cc4)C3)c2c1 (stereo unspecified)	0.8	/	47	/	/
COC(=O)CCNS(=O)(=O)c1ccc2ccccc2c1	-0.6	1%	-2	2	-22
Cc1ccc(F)c(NC=C2C(=O)OC(C)(C)OC2=O)c1	1.7	-7%	5	0	-23	Arbovirus inh repeat=4
CCOc1cc(C(C(=O)NCC2CCCO2)N(C(=O)Cn2nnc3ccccc32)c2ccccc2OC)ccc1O (stereo unspecified)	-0.7	/	-4	/	/
Cc1cc(OCC(=O)NCC(c2cccs2)N2CCOCC2)ccc1C(C)C (stereo unspecified)	1.9	/	-5	/	/
CC1(C)Cc2ccccc2C(Nn2cnnc2)=N1	1.4	-1%	-6	-1	-39
Cc1ccc(/C=C(\C#N)c2nc3ccccc3[nH]2)s1	0.4	-12%	3	-3	-15
CC(C)(C)NCC(O)COc1ccccc1C(=O)CCc1ccccc1 (stereo unspecified)	-1.1	-5%	8	5	-9
COc1ccc(NC(=O)Cc2c(F)cccc2Cl)cc1	-2.5	-1%	2	0	/
N#C/C(C(N)=O)=C1/CCc2ccccc2N1	-2.7	21%	-2	3	8
Cc1cc(C(=O)N2CCC(Cc3ccccc3)CC2)no1	2.4	/	-18	/	/
CC(=O)c1sc(NC(=O)c2ccc(C(C)(C)C)cc2)nc1C	0.0	0%	-4	-14	/
N=C1/C(=C\c2ccc(OC(=O)c3ccc(F)cc3)cc2)C(=O)N=C2SC(N3CCOCC3)=NN12	39*	/	4	/	/
O=C(Nc1ccccc1)/C(=C\c1ccccc1)NC(=O)c1ccco1	-1.6	-5%	46	/	/
CC1(C)CC(=O)C(C=NCCN2CCN(C3CC(=O)N(c4ccc(Br)cc4)C3=O)CC2)=C(O)C1 (stereo unspecified)	-1.1	7%	-14	2	/
COc1cccc(/C=N/NC(=O)c2ccccc2NC(=O)c2ccco2)c1OC	-6.1	0%	10	/	/
O=C(NC(=S)Nc1ccccc1)c1csnn1	-4.6	-3%	-6	-4	1
O=C(c1ccc2c3n(nc2c1)-c1ccc(Cl)cc1CO3)N1CCOCC1	-1.3	-3%	-4	/	/
O=C(NNC(=O)c1ccc(Br)o1)c1ccc(NC(=O)c2ccccc2)cc1	-2.5	-6%	1	3	/
Cc1cc(NC(=O)CSc2nnc(CNC(=O)c3ccccc3)o2)no1	1.7	/	10	/	/
Cc1cccnc1NC(=S)Nc1ccc(Cl)c(Cl)c1	-0.8	?	98	7	/
COCCn1c(SC2CCCCC2=O)nnc1-c1ccncc1 (stereo unspecified)	-1.5	-9%	-2	4	/
O=C(O)CC1(CC(=O)Nc2ccc3ccccc3c2)CCCCC1	0.3	-10%	3	-1	-1
CS(=O)(=O)N(Cc1ccc(F)cc1)Cc1nc2ccccc2c(=O)[nH]1	-2.2	-1%	4	6	-44
Cc1noc(C(=O)Nc2ccc(C#N)cc2)c1Cl	2.9	/	-1	/	/
CCN(CC)CCNC(=O)C1c2cc(OC)c(OC)cc2C(=O)N(C)C1c1cccs1 (stereo unspecified)	-1.9	-3%	-2	13	/
CC1=CCn2c(=O)c3ccccc3c(=O)n2C1	-4.3	-12%	-2	1	-35
NS(=O)(=O)c1ccc(CCNc2ccnc3cc(Cl)ccc23)cc1	0.6	/	-5	/	/
COc1cccc(CNS(=O)(=O)c2cccc(S(=O)(=O)N3CCOCC3)c2)c1	0.1	0%	4	6	-25
Cc1cc(=O)[nH]c(SCC(=O)Nc2cc(S(=O)(=O)N(C)C)ccc2Cl)n1	-4.7	0%	-2	1	/
COc1ccc(C(C(=O)NC2CCCC2)N(Cc2ccco2)C(=O)c2snc(C(N)=O)c2N)cc1OC (stereo unspecified)	0.4	/	-2	/	/
N#Cc1cccc(C(=O)Nc2cccc(S(=O)(=O)N3CCCC3)c2)c1	1.2	/	-19	/	/

Pulled by structure from above:
SMILES	RecA splice inh	Mtb growth	Mtb betalactam	Arbovirus inh	YopH PTP inh	others
Cc1cc(NC(=O)CSc2nnc(CNC(=O)c3ccccc3)o2)no1	1.7	/	10	/	/
Cc1cc(=O)[nH]c(SCC(=O)Nc2cc(S(=O)(=O)N(C)C)ccc2Cl)n1	-4.7	0%	-2	1	/

Screening data from PubChem BioAssay.

The list is partial, so the mix of outcomes need not match the whole.
